High-throughput results as filed in PubChem BioAssay.
RE007 growth inh: less growth of the S. pombe RE007 Vpr strain. 0.21% of 360,000 active. S. pombe RE007 Vpr strain, BacTiter-Glo ATP luminescence, 24 h; control for the full effect not named in the record. Potency, µM (top dose mostly 92.2 µM), for inactives: top-dose activity change, negative = less growth; active = well fitted falling curve with a large enough effect; inconclusive = small, poorly fitted or top-dose-only effect; inactive = no such curve, though single readings can be large or run the other way;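 note: % is set by controls: 0 for no effect and ±100 for the full control effect; nearly all actives have a fitted effect of over 50% in size; the assay follows cell death caused by Vpr and the record does not say whether a fall means rescue or toxicity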
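Fission yeast RE007 carrying one integrated HIV-1 vpr copy, seeded at OD 0.01 in PMG+AL medium with 23 nL pinned compound. Grown 24 h at 30 degrees; viability read by BacTiter-Glo luminescence after 5 min.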
2A StopGo: lowers the luciferase signal of an FMDV 2A StopGo reporter; human cells with a luciferase reporter of 2A StopGo recoding; control for the full effect not named in the record; Potency, µM (titrated, usually from 57.9 µM), inactives show top-dose signal change, negative = less light; 1.2% of 410,000 active; AID 1159524; active = well fitted falling curve with a large enough effect; inconclusive = small, poorly fitted or top-dose-only effect; inactive = no such curve, though single readings can be large or run the other way; tested in HEK293T cells; note: % is set by controls: 0 for no effect and ±100 for the full control effect; nearly all actives have a fitted effect of over 45% in size; luciferase light after 4 h
Marburg entry inh: blocks Marburg virus binding to or entry into cells | 1.8% of 300,000 active | AID 540276 | Marburg virus pseudotyped entry inhibition, cell reporter; control for the full effect not named in the record; about a third of the inactives were read at about 46 µM | Potency, µM (titrated, usually from 37.8 µM), for the others: at the top dose activity change, negative = inhibition, usual class: inhibitors; active = well fitted inhibition curve with a large enough effect; inconclusive = small, poorly fitted or top-dose-only effect, or effect the other way; inactive = flat fitted curve, though single readings scatter; tested in HEK293 cells; about a fifth of its hits are not listed in these tables; note: % is set by controls: 0 for no effect and ±100 for the full control effect; luciferase read-out
NS1 inh: inhibitors of influenza NS1 protein function; AID 2326; S. cerevisiae slowed by influenza A NS1, growth recovery by OD600; 0.4% of 270,000 active; Potency, µM (doses to about 46.1 µM), for inactives: at the highest dose activity, positive = more growth; active means well fitted rising curve with a large enough effect; inconclusive means small, poorly fitted or top-dose-only effect; inactive means no such curve, though single readings can be large or run the other way; note: nearly all actives have a fitted effect of over 50% in size
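In this qHTS, NS1 from influenza A is expressed in budding yeast, where it slows growth. Cells are switched from glucose to 2% galactose medium (pH 6.0, -URA), treated with compound, and growth recovery is read at OD600.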
Cruzain inh Det: cruzain (T. cruzi) inhibition with detergent; P25779; purified cruzain, Z-FR-AMC fluorescence, 0.01% Triton; Potency, µM, for inactives: max response, negative = inhibition, most hits filed as inhibitors; 0.43% of 200,000 active;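 note: plate controls were neutral wells for no effect and buffer without enzyme for full effect; nearly all actives have a fitted effect of over 40% in size; top concentration of the series not given in the record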
Target sequence (P25779 123-467 limits assumed): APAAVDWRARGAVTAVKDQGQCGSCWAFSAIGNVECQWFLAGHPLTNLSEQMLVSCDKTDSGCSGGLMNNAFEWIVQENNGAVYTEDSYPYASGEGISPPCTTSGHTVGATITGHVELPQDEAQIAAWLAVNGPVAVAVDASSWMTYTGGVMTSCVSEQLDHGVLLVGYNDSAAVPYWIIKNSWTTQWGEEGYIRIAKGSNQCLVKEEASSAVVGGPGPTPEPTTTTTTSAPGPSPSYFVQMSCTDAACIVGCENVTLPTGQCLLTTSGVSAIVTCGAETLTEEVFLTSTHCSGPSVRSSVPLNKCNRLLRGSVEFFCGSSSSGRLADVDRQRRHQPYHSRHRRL
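Cysteine protease activity tested under reducing, mildly acidic conditions (100 mM sodium acetate pH 5.5, 5 mM DTT) plus 0.01% Triton X-100. Cruzain 1.5 nM; substrate Z-FR-AMC 2 uM; 15 min compound preincubation at room temperature.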
Cruzain inh noDet: blocks cruzain activity in detergent-free assay; purified cruzain, Z-FR-AMC fluorescence, no detergent; Potency, µM, without a hit: max response, negative = inhibition, hits mostly inhibitors; 2.3% of 200,000 active; AID 1476;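 note: plate controls were enzyme without inhibitor for no effect and buffer without enzyme for full effect; nearly all actives have a fitted effect of over 40% in size; top concentration of the series not given in the record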
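Purified cruzain at 1.5 nM, pre-incubated 15 min with compound at room temperature in 100 mM sodium acetate pH 5.5, 5 mM DTT, 0.00005% Triton X-100. Reaction started with 2 uM Z-FR-AMC; AMC fluorescence increase over 60 s gives rate.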
Lassa entry inh: blocks Lassa virus binding to or entry into cells. Lassa virus pseudotype entry inhibition, cell reporter; control for the full effect not named in the record. Potency, µM (top dose mostly 37.9 µM), for the others: at the top dose activity change, negative = inhibition, actives largely listed as inhibitors. 1.2% of 300,000 active. AID 540256; active means well fitted inhibition curve with a large enough effect; inconclusive means small, poorly fitted or top-dose-only effect, or effect the other way; inactive means flat fitted curve, though single readings scatter; tested in HEK293 cells; note: % is set by controls: 0 for no effect and ±100 for the full control effect; nearly all actives have a fitted effect of over 50% in size; luciferase read-out
SARS PLP yeast: SARS-CoV PLP inhibition in yeast | S. cerevisiae expressing SARS-CoV PLpro, growth rescue; control for the full effect not named in the record | Potency, µM (highest dose often 32.9 µM), for inactives: top-dose activity, positive = growth rescue | 0.19% of 330,000 active | AID 485353; active means well fitted rising curve with a large enough effect; inconclusive means small, poorly fitted or top-dose-only effect; inactive means no such curve, though single readings can be large or run the other way; note: 0% is about no effect; nearly all actives have a fitted effect of over 55% in size; growth read by luminescence after 48 h
* hit, by the source's call; & = joins results of further samples; [ ] = another dose, or the depositor's remark. Unless noted, calls come from the whole dose curve; as a rule, active = well fitted curve in the direction sought with a large enough effect; inconclusive = small, poorly fitted or top-dose-only effect, or another doubt; inactive = no such curve, though single readings can be large; an effect the other way counts as inactive or inconclusive. Potency is the fitted concentration of half-maximal effect.

Results for O=C(O)CSc1nc2ccccc2o1 ?
RE007 growth inh: 19%; 2A StopGo: 16%; Marburg entry inh: inconclusive; NS1 inh: 2%; Cruzain inh Det: -1.0%; Cruzain inh noDet: -4%; Lassa entry inh: 12%; SARS PLP yeast: 3%

Results for CC1Oc2ccccc2N(CC(=O)Nc2ccccc2F)C1=O (stereo not drawn) ?
RE007 growth inh: 4%; 2A StopGo: -12%; Marburg entry inh: inconclusive; NS1 inh: 18%; Lassa entry inh: -1%; SARS PLP yeast: -1%

How did Cc1cc(C)n(-c2nc3nonc3nc2-n2nc(C)cc2C)n1 do in these assays?
RE007 growth inh: -2%; 2A StopGo: -6%; Marburg entry inh: inconclusive; NS1 inh: -40%; Cruzain inh Det: -6.6%; Cruzain inh noDet: -18%; Lassa entry inh: 12%; SARS PLP yeast: 8%

What do the screens show for `CN(C)CC#CCn1c2ccccc2c2ccccc21`?
RE007 growth inh: -6%; 2A StopGo: -19%; NS1 inh: -3%; SARS PLP yeast: 1%

How did CCC(=O)Nc1ccc(-c2csc(C)n2)cc1 do in these assays?
RE007 growth inh: -17%; 2A StopGo: 17%; Marburg entry inh: 19%; NS1 inh: -12%; Cruzain inh Det: -0.1%; Cruzain inh noDet: -6%; Lassa entry inh: 6%; SARS PLP yeast: -24%

What do the screens show for `CC12CCC(=O)N1C(C(=O)NCCN1C(=O)S/C(=C\c3ccc(F)cc3)C1=O)CS2` (stereo not drawn)?
RE007 growth inh: -4%; 2A StopGo: -19%; Marburg entry inh: 16%; Lassa entry inh: 0%; SARS PLP yeast: -7%

What do the screens show for `CONC(=O)C1CCN(C(=O)OCc2ccccc2)CC1`?
RE007 growth inh: 0%; 2A StopGo: 10%; Marburg entry inh: 8%[46.1 µM]; NS1 inh: -1%; Cruzain inh Det: -9.2%; Cruzain inh noDet: -16%; Lassa entry inh: 10%; SARS PLP yeast: 5%

What do the screens show for `Cc1ccc(-n2c(CCC(=O)O)ccc2-c2cccs2)cc1Cl`?
2A StopGo: -20%; Marburg entry inh: inconclusive; Cruzain inh Det: -0.5%; Cruzain inh noDet: 15%; Lassa entry inh: 26%[46.1 µM]

Results for CCOC(=O)C(Cc1ccc(O)c([N+](=O)[O-])c1)N1C(=O)c2ccccc2C1=O (stereo not drawn) ?
RE007 growth inh: -9%; 2A StopGo: -24%; Marburg entry inh: inconclusive; Lassa entry inh: 25%

What do the screens show for `Brc1ccccc1C1Nc2cccc3cccc(c23)N1`?
RE007 growth inh: inconclusive; 2A StopGo: -22%; Marburg entry inh: inconclusive; NS1 inh: -82%; Lassa entry inh: -27%[46.1 µM]; SARS PLP yeast: -23%

What do the screens show for `COc1ccc(N(C)S(=O)(=O)c2cccc(C(=O)NC3CCC(C)CC3)c2)cc1` (stereo not drawn)?
RE007 growth inh: -12%; 2A StopGo: -19%; Marburg entry inh: inconclusive; NS1 inh: -11%; Lassa entry inh: inconclusive; SARS PLP yeast: 2%

How did Cc1cccc(CN2CCC(CNC(=O)c3c(C)oc4ncnc(N5CCCCC5)c34)CC2)c1 do in these assays?
2A StopGo: -14%; Cruzain inh Det: 0.0%; Cruzain inh noDet: -5%; Lassa entry inh: 22%[46.1 µM]

How did O=C(Cn1cc[n+](Cc2ccccc2)c1)c1ccc([N+](=O)[O-])cc1 do in these assays?
RE007 growth inh: 5%; 2A StopGo: -30%; Marburg entry inh: inconclusive; Lassa entry inh: inconclusive; SARS PLP yeast: 1%

What do the screens show for `O=C(Nc1ccc(S(=O)(=O)Nc2cnc3ccccc3n2)cc1)c1cc(F)c(F)cc1Cl`?
RE007 growth inh: 6%; 2A StopGo: 0%; Marburg entry inh: -26%[46.1 µM]; NS1 inh: 2%; Lassa entry inh: 5%; SARS PLP yeast: 0%

How did COc1ccc(OC)c(NC(=O)CSc2nnc(-c3cnccn3)n2C)c1 do in these assays?
RE007 growth inh: -7%; 2A StopGo: -11%; Marburg entry inh: 9%[46.1 µM]; NS1 inh: -8%; Lassa entry inh: 2%[46.1 µM]; SARS PLP yeast: -2%

What do the screens show for `COCCNC(=O)CC(c1ccccc1)c1ccccc1`?
RE007 growth inh: -13%; 2A StopGo: -5%; Marburg entry inh: 11%; NS1 inh: 6%; Cruzain inh Det: -2.3%; Cruzain inh noDet: -2%; Lassa entry inh: 3%; SARS PLP yeast: -6%

Results for O=C(/C=C/c1c(F)cccc1Cl)N1CCOCC1 ?
RE007 growth inh: 5%; 2A StopGo: 28%; NS1 inh: 6%; SARS PLP yeast: -3%

Results for O=[N+]([O-])c1ccccc1/C=N\N1CCN(Cc2ccccc2Cl)CC1 ?
RE007 growth inh: 4%; 2A StopGo: 30%[activator]; NS1 inh: -11%; SARS PLP yeast: 4%

What do the screens show for `C[N+](C)(C)CC1CCCC(C[N+](C)(C)C)C1=O` (stereo not drawn)?
RE007 growth inh: -26%; 2A StopGo: inconclusive; Marburg entry inh: 10µM*; Lassa entry inh: inconclusive

Results for Cn1c(C(=O)OC(C(=O)NC2CCCC2)c2cccnc2)cc2sccc21 (stereo not drawn) ?
RE007 growth inh: -18%; Marburg entry inh: -13%; NS1 inh: -4%; Cruzain inh Det: 12%; Cruzain inh noDet: 3%; Lassa entry inh: 18%; SARS PLP yeast: -16%

How did Cc1sc(=NC(=O)c2ccco2)n(C)c1-c1ccc(F)cc1 do in these assays?
RE007 growth inh: -7%; 2A StopGo: 4%; Marburg entry inh: inconclusive; NS1 inh: -46%; Cruzain inh Det: -8.4%; Cruzain inh noDet: -7%; Lassa entry inh: inconclusive; SARS PLP yeast: -9%

What do the screens show for `COc1ccc(NS(=O)(=O)c2cccc(C(=O)N3CCCC3)c2)cc1`?
RE007 growth inh: 2%; 2A StopGo: 8%; Marburg entry inh: -16%; Lassa entry inh: -10%; SARS PLP yeast: 1%

How did COc1ccc(N2CCN(c3ccc(NC(=O)C4CCCCC4)cc3C#N)CC2)cc1 do in these assays?
RE007 growth inh: 4%; 2A StopGo: -7%; Marburg entry inh: 0%&0%; NS1 inh: 2%; Cruzain inh Det: -0.2%; Cruzain inh noDet: inconclusive; Lassa entry inh: -4%; SARS PLP yeast: -2%

Results for COc1ccc(S(=O)(=O)Nc2ccccc2C(=O)NC(C)C)cc1OC ?
RE007 growth inh: 0%; 2A StopGo: 20%; Marburg entry inh: -2%; NS1 inh: 6%; Cruzain inh Det: 1.4%; Cruzain inh noDet: 9%; Lassa entry inh: -1%; SARS PLP yeast: 1%

How did COc1ccc(S(=O)(=O)N2CCOC2CNC(=O)C(=O)NCCCn2ccnc2)cc1OC (stereo not drawn) do in these assays?
RE007 growth inh: -13%; 2A StopGo: 0%; Marburg entry inh: 8%; NS1 inh: -11%; Cruzain inh Det: -0.5%; Cruzain inh noDet: 3%; Lassa entry inh: -7%; SARS PLP yeast: -3%

What do the screens show for `COc1ccc(C(=O)/C=C/c2cn(CC(O)CN3CCc4ccccc43)c3ccccc23)cc1` (stereo not drawn)?
2A StopGo: 11%; Marburg entry inh: inconclusive; Cruzain inh Det: -3.4%; Cruzain inh noDet: 6.3µM*; Lassa entry inh: inconclusive

Results for CCS(=O)(=O)N1CCCC(C(=O)NCCc2ccccc2)C1 (stereo not drawn) ?
RE007 growth inh: 9%; Marburg entry inh: 24%; NS1 inh: 4%; Cruzain inh Det: 6.8%; Cruzain inh noDet: -9%; Lassa entry inh: 13%; SARS PLP yeast: -9%

What do the screens show for `CC(C)Cc1nnc(NC(=O)c2cc([N+](=O)[O-])ccc2N2CCOCC2)s1`?
RE007 growth inh: 15%; 2A StopGo: -6%; Marburg entry inh: 4%; NS1 inh: 10%; Lassa entry inh: 7%; SARS PLP yeast: 1%

Results for Cc1cc(C)cc(NC(=O)CCCSc2nc3ccccc3[nH]2)c1 ?
RE007 growth inh: -14%; 2A StopGo: -25%; Marburg entry inh: inconclusive; NS1 inh: -30%; Cruzain inh Det: -10.0%; Cruzain inh noDet: -1%; Lassa entry inh: -1%; SARS PLP yeast: 3%

How did Cc1ccccc1Cn1cc(NC(=O)c2noc(C(C)C)c2[N+](=O)[O-])cn1 do in these assays?
RE007 growth inh: 0%; 2A StopGo: -3%; NS1 inh: -18%; SARS PLP yeast: -1%

2 entries drawn at random from the list so far:
Results for O=[N+]([O-])c1ccccc1/C=N\N1CCN(Cc2ccccc2Cl)CC1 ?
RE007 growth inh: 4%; 2A StopGo: 30%[activator]; NS1 inh: -11%; SARS PLP yeast: 4%

Results for CCS(=O)(=O)N1CCCC(C(=O)NCCc2ccccc2)C1 (stereo not drawn) ?
RE007 growth inh: 9%; Marburg entry inh: 24%; NS1 inh: 4%; Cruzain inh Det: 6.8%; Cruzain inh noDet: -9%; Lassa entry inh: 13%; SARS PLP yeast: -9%

Next structures follow:
Results for CCN(CC(=O)Nc1ccccc1C(F)(F)F)C(=O)c1cc(S(=O)(=O)N2CCCCCC2)ccc1OC ?
RE007 growth inh: -17%; 2A StopGo: inconclusive; Marburg entry inh: -11%; Lassa entry inh: -3%; SARS PLP yeast: -3%

Results for O=C(CC12CC3CC(CC(C3)C1)C2)NC1CC1 ?
RE007 growth inh: 12%; 2A StopGo: 4%; Marburg entry inh: 11%; Lassa entry inh: -1%

What do the screens show for `COc1ccc(-c2cc(C(=O)NC3CCCCC3)no2)cc1OC`?
RE007 growth inh: 0%; 2A StopGo: 11%; Marburg entry inh: 7%[46.1 µM]; NS1 inh: 0%; Lassa entry inh: 0%[46.1 µM]; SARS PLP yeast: 0%

How did COc1ccccc1N1CCN(C(=O)Cn2c(=O)nc(-c3ccccc3)c3cc(Cl)ccc32)CC1 do in these assays?
2A StopGo: 24%; Cruzain inh Det: 1.4%; Cruzain inh noDet: -4%; Lassa entry inh: -17%[46.1 µM]
